Assay outcomes deposited in PubChem by The Scripps Research Institute Molecular Screening Center.
SRC1_inh = inhibitors of human steroid receptor coactivator 1 (SRC1). AID 588354. HEK293 GAL4-SRC1 luciferase reporter, luminescence. Q15788. inhibition, % at 3.6 µM. 0.12% of 360,000 active;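 active means inhibition above the campaign mean plus 3 SD, with each screening campaign given its own cutoff, cut at about 60% in these data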;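 further: 0% = DMSO treated cells and 100% = gossypol at 36 µM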
NCOA2_inhibitor = inhibits human steroid receptor coactivator 2. Q15596. HEK293 GAL4-SRC2 luciferase reporter, luminescence. inhibition, % at 9 µM. 0.17% of 370,000 active. AID 651957;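 active means inhibition above the mean inhibition of all tested compounds plus 3 SD, set per campaign, cut at about 52% in these data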;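 further: 0% = DMSO treated cells and 100% = cells given Gossypol at 36 µM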
NR2F2_inh = blocks human COUP-TFII nuclear receptor. P24468. HEK293T NGFI-A luciferase reporter, luminescence. inhibition, % at 8.6 µM. 0.7% of 370,000 active;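 active means inhibition above a per-plate cutoff, mean inhibition of test wells between control levels plus 3 SD, cut at about 38% in these data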;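 further: cells cotransfected with COUP-TFII expression vector driving the NGFI-A reporter; 0% = median of COUP-TF2 test wells and 100% = reporter-only cells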
Target sequence (P24468 whole entry, looked up): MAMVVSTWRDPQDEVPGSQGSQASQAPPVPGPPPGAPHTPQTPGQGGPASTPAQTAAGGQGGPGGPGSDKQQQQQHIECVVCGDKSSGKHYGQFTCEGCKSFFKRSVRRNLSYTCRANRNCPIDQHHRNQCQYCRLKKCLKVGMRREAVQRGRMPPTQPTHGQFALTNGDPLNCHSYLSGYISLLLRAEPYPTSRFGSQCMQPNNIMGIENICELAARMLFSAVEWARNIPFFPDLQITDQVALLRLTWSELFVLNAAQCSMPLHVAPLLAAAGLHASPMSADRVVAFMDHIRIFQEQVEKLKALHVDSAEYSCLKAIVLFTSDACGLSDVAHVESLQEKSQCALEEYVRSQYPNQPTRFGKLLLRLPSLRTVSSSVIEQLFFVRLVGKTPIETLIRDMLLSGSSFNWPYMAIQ
NOD2-RIPK2_inh = blocks binding of human NOD2 to RIPK2. AID 624267. O43353. inhibition, % at 4.98 µM. 0.38% of 360,000 active. CHO BLA complementation NOD2-RIPK2, CCF4 ratio; in the data active means inhibition above about 21%;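 further: 0% = vehicle only and 100% = reference blocker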
TLR9-MyD88_inh = inhibitors of human TLR9-MyD88 binding. Q9NR96+Q99836. CHO BLA complementation TLR9-MyD88, CCF4 FRET ratio. inhibition, % at 4.98 µM. 0.21% of 340,000 active. AID 504734;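 active means inhibition above the mean over all tested compounds plus 3 SD, cut at about 21% in these data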;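 further: 0% = DMSO only wells and 100% = clavulanate BLA inhibitor control wells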
* = called active by the depositor.

SMILES SRC1_inh NCOA2_inhibitor NR2F2_inh NOD2-RIPK2_inh TLR9-MyD88_inh
CCCC(=O)c1ccc(O)cc1O 2.8 -21.3 12.8 -2.7 -8.2
Cc1ccn2cc(-c3cccc([N+](=O)[O-])c3)nc2c1 -124.5 -45.7 -34.2 -0.6 2.3
N#Cc1c(-c2ccc(Cl)cc2)c(-c2ccc(Cl)cc2)nn(CCO)c1=O -4.9 9.8 -2.8 -3.6 -3.2
C=C(CN(C)C)C(=O)c1cc(OC)c(OC)cc1OC -21.5 -9.2 -9.8 15.5 -9.3
CCCOc1ccc(-c2cn3ccccc3n2)cc1 -107.3 -30.2 -30.6 -16.1 2.1
Cc1nc2ccccc2c(-c2ccccc2)c1CC(=O)O -8.8 -4.2 8.0 -0.4 -1.4
Cc1ccc(NC(=O)C(=O)Nc2ccccn2)cc1 -42.6 -15.0 -28.6 -3.3 9.8
Cc1nc(-c2ccc(C(=O)Nc3ccc(F)cc3)cc2)cs1 -52.7 -25.2 -9.4 5.7 4.0
O=C(O)c1cc(S(=O)(=O)N2CC=C(c3ccccc3)CC2)ccc1O 2.2 -2.6 0.6 7.7 10.1
Cn1c(=O)n(C)c2cc(N3CCCCC3)c(NC(=O)c3ccccc3)cc21 -49.3 19.9 -14.0 1.8 3.5

Already shown: entries from further up.
SMILES SRC1_inh NCOA2_inhibitor NR2F2_inh NOD2-RIPK2_inh TLR9-MyD88_inh
CCCC(=O)c1ccc(O)cc1O 2.8 -21.3 12.8 -2.7 -8.2
Cc1ccn2cc(-c3cccc([N+](=O)[O-])c3)nc2c1 -124.5 -45.7 -34.2 -0.6 2.3

Fetched by structure from the entries so far, five records:
SMILES SRC1_inh NCOA2_inhibitor NR2F2_inh NOD2-RIPK2_inh TLR9-MyD88_inh
Cc1nc2ccccc2c(-c2ccccc2)c1CC(=O)O -8.8 -4.2 8.0 -0.4 -1.4
O=C(O)c1cc(S(=O)(=O)N2CC=C(c3ccccc3)CC2)ccc1O 2.2 -2.6 0.6 7.7 10.1
CCCOc1ccc(-c2cn3ccccc3n2)cc1 -107.3 -30.2 -30.6 -16.1 2.1
Cc1nc(-c2ccc(C(=O)Nc3ccc(F)cc3)cc2)cs1 -52.7 -25.2 -9.4 5.7 4.0
N#Cc1c(-c2ccc(Cl)cc2)c(-c2ccc(Cl)cc2)nn(CCO)c1=O -4.9 9.8 -2.8 -3.6 -3.2

Some of the compounds tested; the hit share may differ from the screen's.
